Compound activity: PubChem BioAssay, Broad Institute
NOMO-1 viab: NOMO-1 AML cell viability reduction, primary screen, STK33 inhibitor project, CellTiter-Glo luminescence; NOMO-1 AML viability, 72 h; inhibition, % (concentration not given with the values); hit rate 7.5% among 37,000;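 active = most replicates above 80%; inconclusive = exactly half above 80%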;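 also: wells of about 30 µL received 25 nL stock; 0% = median of vehicle wells and 100% = reference inhibitor level; the first replicate is given; inactives centre near 10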
* hit, by the source's call; ? = inconclusive.

SMILES	NOMO-1 viab
Cc1c(-n2c(/C=C\c3ccc([N+](=O)[O-])o3)nc3ccccc3c2=O)c(=O)n(-c2ccccc2)n1C	115*
O=C(O)CCCC(=O)Nc1ccccc1	-5
C[C@@H]1CN([C@H](C)CO)C(=O)Cc2cc(NS(=O)(=O)c3ccc(Cl)cc3)ccc2O[C@H]1CN(C)Cc1ccccc1	46
O=C(Nc1cccc(Cl)c1)c1ccc(NCc2ccco2)c([N+](=O)[O-])c1	37
C[C@H](CO)N1C[C@H](C)[C@@H](CN(C)Cc2ccccc2)Oc2c(NC(=O)Nc3ccc4c(c3)OCO4)cccc2C1=O	61
C[C@@H]1CCCCO[C@H](CN(C)S(=O)(=O)c2cccs2)[C@@H](C)CN([C@H](C)CO)C(=O)c2cc(NC(=O)C3CCCCC3)ccc2O1	2
O=C(COc1ccccc1)Nc1ccc2oc(-c3cccc(Cl)c3)nc2c1	1
C[C@@H]1CN([C@H](C)CO)C(=O)Cc2cc(NC(=O)c3ccncc3)ccc2O[C@@H]1CN(C)S(=O)(=O)c1ccccc1	-5
O=C(c1ccc(NCc2cccnc2)c([N+](=O)[O-])c1)N1CCCCC1	13
C[C@H]1CN([C@@H](C)CO)C(=O)Cc2cc(NS(C)(=O)=O)ccc2O[C@H]1CN(C)C(=O)Nc1ccc(C(F)(F)F)cc1	5
CCC(Sc1nc2ccccc2[nH]1)C(=O)Nc1ccc(NC(C)=O)cc1 (configuration not stated)	-15
C[C@H]1CN([C@@H](C)CO)C(=O)c2cccc(NC(=O)c3ccc(-c4nccs4)cc3)c2O[C@H]1CN(C)Cc1ccc(C(=O)O)cc1	23
C[C@H]1CN([C@@H](C)CO)C(=O)c2cc(NS(=O)(=O)c3ccc(Cl)cc3)ccc2O[C@H]1CN(C)S(=O)(=O)c1ccc(Cl)cc1	51
C[C@@H]1CCCCO[C@H](CN(C)C(=O)Nc2ccccc2)[C@@H](C)CN([C@H](C)CO)C(=O)c2cc(NC(=O)Nc3ccc(F)cc3)ccc2O1	-11
C[C@@H]1CN([C@H](C)CO)C(=O)c2cccc(NC(=O)CCCCCC(=O)Nc3ccccc3N)c2O[C@@H]1CN(C)C(=O)NC1CCCCC1	29
C[C@@H]1CN([C@@H](C)CO)C(=O)c2cccc(NS(=O)(=O)c3cn(C)cn3)c2O[C@@H]1CN(C)S(=O)(=O)c1ccc(Cl)cc1	4
C[C@H]1CN([C@@H](C)CO)C(=O)c2cc(NC(=O)Cc3cn(C)c4ccccc34)ccc2O[C@@H]1CN(C)S(C)(=O)=O	-13
NC(=O)CSCC(=O)Nc1ccccc1F	-13
C[C@@H]1CN([C@H](C)CO)C(=O)Cc2cc(NC(=O)C3CCCCC3)ccc2O[C@@H]1CN(C)CC1CCCCC1	1
COc1ccc(N(C(C)C(=O)Nc2ccc(Br)cc2F)S(C)(=O)=O)cc1 (configuration not stated)	6
C=C1C(=O)O[C@H]2C1[C@H](OC(=O)/C(C)=C/CO)C/C(C)=C\CC[C@@]1(C)OC21 (some centres not stated)	122*
CC(=O)SC1CC(=O)N(c2ccc(C(C)(C)C)cc2)C1=O (configuration not stated)	36
COC(=O)c1c(C)nc(C)c2c(=O)oc3ccccc3c12	8
C[C@@H]1CN([C@@H](C)CO)C(=O)Cc2cc(NC(=O)CCC(F)(F)F)ccc2O[C@@H]1CN(C)S(=O)(=O)c1cccs1	0
O=C(CSc1nnc(-c2ccncc2)n1-c1ccccc1)Nc1ccc(C(=O)O)cc1	37
Additional results
SMILES	NOMO-1 viab
C[C@@H]1CCCCO[C@H](CN(C)S(C)(=O)=O)[C@@H](C)CN([C@H](C)CO)C(=O)c2cc(NC(=O)Nc3ccc(C(F)(F)F)cc3)ccc2O1	21
Cc1ccc(S(=O)(=O)Nc2ccc3c(c2)C(=O)N([C@H](C)CO)C[C@@H](C)[C@@H](CN(C)C(=O)Nc2ccccc2)O3)cc1	19
Cc1nc(-c2c(C(F)(F)F)oc3cc(O)ccc3c2=O)cs1	34
C[C@@H]1CN([C@H](C)CO)C(=O)c2cccc(NC(=O)c3ccc(-c4nccs4)cc3)c2O[C@H]1CN(C)Cc1ccc(Cl)c(Cl)c1	106*
COc1ccc(NC(=O)N(C)C[C@@H]2Oc3ccc(NC(=O)CCC(F)(F)F)cc3C(=O)N([C@@H](C)CO)C[C@@H]2C)cc1	18
C[C@@H]1CCCCO[C@@H](CN(C)S(C)(=O)=O)[C@@H](C)CN([C@H](C)CO)C(=O)c2cc(NS(C)(=O)=O)ccc2O1	29
c1ccc(-c2nnc(OCc3cccnc3)c3ccccc23)cc1	32
CC(=O)c1c(C)nn(CC(O)COc2ccc3c(c2)CCC3)c1C (configuration not stated)	55
COc1ccc(NC(=O)N(C)C[C@H]2Oc3ccc(NC(=O)C4CCCCC4)cc3C(=O)N([C@H](C)CO)C[C@@H]2C)cc1	10
O=C(NC(=S)N1CCCCC1)c1ccccc1	-22
O=C(CN1CCCC1)Nc1sc2c(c1C(=O)Nc1ccc(Br)cc1)CCC2	42
COc1ccc(-c2coc3c(O)c(OC)ccc3c2=O)cc1	2
Cc1noc(C)c1NC(=O)Nc1ccc2c(c1)C(=O)N([C@@H](C)CO)C[C@@H](C)[C@@H](CN(C)Cc1ccc(Cl)c(Cl)c1)O2	31
OCCN1CCN(CC(O)COc2ccc3c(c2)CCC3)CC1 (configuration not stated)	32
C[C@@H]1CN([C@H](C)CO)C(=O)Cc2cc(NC(=O)CCN3CCOCC3)ccc2O[C@H]1CN(C)S(=O)(=O)c1cccs1	-8
C[C@@H]1CN([C@@H](C)CO)C(=O)c2cc(NC(=O)Cc3ccccc3)ccc2O[C@@H]1CN(C)CC1CC1	13
C[C@@H]1CN([C@H](C)CO)C(=O)Cc2cc(NC(=O)CCN3CCOCC3)ccc2O[C@@H]1CN(C)S(=O)(=O)c1cccs1	20
C[C@@H]1CN([C@H](C)CO)C(=O)Cc2cc(N(C)C)ccc2O[C@H]1CN(C)C(=O)Nc1ccc(F)cc1	19
CC(=O)O[C@@H]1[C@@H](O)[C@H](C)O[C@@H](Oc2c(-c3ccc(O)cc3)oc3cc(O[C@@H]4O[C@@H](C)[C@H](O)[C@@H](O)[C@H]4O)cc(O)c3c2=O)[C@@H]1O	0
COc1ccc(-n2c(CC#N)nnc2SCc2c(C)c(C)c(C)c(C)c2C)cc1	102*
CCOc1ccccc1-c1nc(SCC(=O)Nc2ccc(I)cc2)n[nH]1	7
Cc1nn(-c2ccccc2)c(CC(C)(C)C(=O)O)c1C(=O)O	9
CCC1=NC(C(F)(F)F)(C(F)(F)F)C2=C(CC(C)(C)CC2=O)N1Cc1ccccc1	41
COc1ccc(S(=O)(=O)N(C)C[C@@H]2Oc3c(cccc3N(C)C)C(=O)N([C@H](C)CO)C[C@H]2C)cc1	3
COc1ccc(CNCCSc2nnnn2C)cc1	9
Further entries.
SMILES	NOMO-1 viab
C[C@H]1CN([C@@H](C)CO)C(=O)Cc2cc(NC(=O)c3ccncc3)ccc2O[C@@H]1CN(C)CC1CC1	-4
CCn1c(SCC(=O)Nc2ccc(Cl)cc2Cl)nnc1-c1ccc(Cl)c(Cl)c1	21
COc1cc(NC(=O)C2c3ccccc3Oc3ccccc32)c(OC)cc1NC(=O)c1ccccc1	40
CC1CCC2(C)C(C(=O)O)=CCCC2C1(C)CCC1=CC(O)OC1=O (configuration not stated)	4
COc1ccc(NC(=O)Nc2cccc3c2O[C@H](CN(C)S(=O)(=O)c2ccc(F)cc2)[C@H](C)CN([C@@H](C)CO)C3=O)cc1	34
C[C@@H]1CN([C@@H](C)CO)C(=O)Cc2cc(NC(=O)CCC(F)(F)F)ccc2O[C@@H]1CN(C)C(=O)Nc1ccc(C(F)(F)F)cc1	20
O=C(NCC[C@@H](CNC(=O)c1cccc(O)c1O)NC(=O)c1cccc(O)c1O)c1cccc(O)c1O	120*
O=C(NCc1nc2ccccc2[nH]1)c1c(F)c(F)c(F)c(F)c1F	20
Cc1noc(C)c1S(=O)(=O)N(C)C[C@@H]1Oc2c(NC(=O)c3ccc(-c4nccs4)cc3)cccc2C(=O)N([C@@H](C)CO)C[C@H]1C	3
C[C@H]1CN([C@@H](C)CO)C(=O)Cc2cc(NC(=O)C3CCCCC3)ccc2O[C@@H]1CN(C)Cc1ccc(C(=O)O)cc1	1
C[C@H]1CN([C@@H](C)CO)C(=O)c2cc(NC(=O)Nc3ccccc3)ccc2O[C@@H]1CN(C)S(=O)(=O)c1ccc(Cl)cc1	-3
CCc1ccc(CCC(=O)Nc2ccc3ccccc3c2)o1	6
CS(=O)(=O)N(CC(=O)Nc1cccc(Cl)c1Cl)c1cc(C(F)(F)F)ccc1Cl	23
C[C@H]1CN([C@@H](C)CO)C(=O)c2cccc(NC(=O)NC3CCCCC3)c2O[C@@H]1CN(C)S(=O)(=O)c1cn(C)cn1	8
CC(C)(C)C(=O)Nc1ccc2c(c1)C(=O)C(=O)c1ccccc1-2	98*
C[C@H](CO)N1C[C@H](C)[C@@H](CN(C)CC2CC2)Oc2c(NC(=O)C3CCCCC3)cccc2C1=O	?
C[C@H]1CN([C@@H](C)CO)C(=O)Cc2cc(NC(=O)CCN3CCOCC3)ccc2O[C@H]1CN(C)C(=O)Nc1ccc(C(F)(F)F)cc1	9
C[C@H](CO)N1C[C@H](C)[C@@H](CN(C)CC2CCCCC2)Oc2ccc(N(C)C)cc2C1=O	-23
O=C(CCC(=O)c1ccc(-c2ccccc2)cc1)Nc1cccnc1	9

Part of the list above, in CSV form.
SMILES,NOMO-1 viab
C[C@H]1CN([C@@H](C)CO)C(=O)Cc2cc(NC(=O)c3ccncc3)ccc2O[C@@H]1CN(C)CC1CC1,-4
CCn1c(SCC(=O)Nc2ccc(Cl)cc2Cl)nnc1-c1ccc(Cl)c(Cl)c1,21
COc1cc(NC(=O)C2c3ccccc3Oc3ccccc32)c(OC)cc1NC(=O)c1ccccc1,40
CC1CCC2(C)C(C(=O)O)=CCCC2C1(C)CCC1=CC(O)OC1=O (configuration not stated),4
COc1ccc(NC(=O)Nc2cccc3c2O[C@H](CN(C)S(=O)(=O)c2ccc(F)cc2)[C@H](C)CN([C@@H](C)CO)C3=O)cc1,34
C[C@@H]1CN([C@@H](C)CO)C(=O)Cc2cc(NC(=O)CCC(F)(F)F)ccc2O[C@@H]1CN(C)C(=O)Nc1ccc(C(F)(F)F)cc1,20
O=C(NCC[C@@H](CNC(=O)c1cccc(O)c1O)NC(=O)c1cccc(O)c1O)c1cccc(O)c1O,120*
O=C(NCc1nc2ccccc2[nH]1)c1c(F)c(F)c(F)c(F)c1F,20
Cc1noc(C)c1S(=O)(=O)N(C)C[C@@H]1Oc2c(NC(=O)c3ccc(-c4nccs4)cc3)cccc2C(=O)N([C@@H](C)CO)C[C@H]1C,3
C[C@H]1CN([C@@H](C)CO)C(=O)Cc2cc(NC(=O)C3CCCCC3)ccc2O[C@@H]1CN(C)Cc1ccc(C(=O)O)cc1,1
C[C@H]1CN([C@@H](C)CO)C(=O)c2cc(NC(=O)Nc3ccccc3)ccc2O[C@@H]1CN(C)S(=O)(=O)c1ccc(Cl)cc1,-3
CCc1ccc(CCC(=O)Nc2ccc3ccccc3c2)o1,6
CS(=O)(=O)N(CC(=O)Nc1cccc(Cl)c1Cl)c1cc(C(F)(F)F)ccc1Cl,23
C[C@H]1CN([C@@H](C)CO)C(=O)c2cccc(NC(=O)NC3CCCCC3)c2O[C@@H]1CN(C)S(=O)(=O)c1cn(C)cn1,8
CC(C)(C)C(=O)Nc1ccc2c(c1)C(=O)C(=O)c1ccccc1-2,98*
C[C@H](CO)N1C[C@H](C)[C@@H](CN(C)CC2CC2)Oc2c(NC(=O)C3CCCCC3)cccc2C1=O,?

A portion of the library; rates above refer to the full screens.
